Source: PubChem (several laboratories)
GALR2 ag – GALR2 (human) receptor agonism. AID 803. 140,000 compounds, 0.48% hits. GALR2-expressing cells, agonist activation read-out. O43603. activation, %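 (tested at 5 µM)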;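 active means above mean plus 3 SD of all compounds, about 5% in these data, not always enough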;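 further: 0% = vehicle buffer wells and 100% = reference agonist at full effect; tested in CHO reporter cells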
Target sequence (O43603 whole entry, looked up): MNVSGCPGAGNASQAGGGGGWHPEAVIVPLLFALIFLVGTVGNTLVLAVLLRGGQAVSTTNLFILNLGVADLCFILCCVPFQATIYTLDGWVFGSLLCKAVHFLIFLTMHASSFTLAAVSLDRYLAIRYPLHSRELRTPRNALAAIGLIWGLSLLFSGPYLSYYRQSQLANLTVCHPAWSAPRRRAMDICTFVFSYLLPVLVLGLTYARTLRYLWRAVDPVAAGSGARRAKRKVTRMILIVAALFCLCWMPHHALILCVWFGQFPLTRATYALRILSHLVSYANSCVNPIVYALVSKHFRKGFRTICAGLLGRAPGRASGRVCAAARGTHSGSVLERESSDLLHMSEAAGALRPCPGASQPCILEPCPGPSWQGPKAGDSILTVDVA
PKD1 kinase inh – blocks activity of human protein kinase D1 | inhibition, %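 (about 10 µM by stock and volumes)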 | 200,000 compounds, 0.056% hits | PKD1 kinase fluorescence polarization assay | Q15139;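 active means inhibition of 50% or more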;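 further: controls were vehicle for no effect and a reference inhibitor for full effect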
INS promoter inh – TRM-6 insulin promoter activity inhibition. TRM-6 cells (human fetal islet line), insulin promoter-eGFP reporter, imaging; reporter expression induced with tamoxifen. inhibition, % at 2 µM. 130,000 compounds, 0.9% hits. AID 1273;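 active means inhibition above the mean plus 3 SD, with well images judged a real hit on visual review, cut at about 60% in these data, passing the limit was not always enough; inconclusive means inhibition over the cutoff but images rejected on review; inactive means inhibition not above the cutoff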
RGS16-Gao – RGS16-Galphao interaction regulator (human); O15492+P09471; binding response (% of control), % at 10 µM; bead-based flow cytometry RGS16-Galphao binding, fluorescence; actives lie on both sides; AID 1441; 220,000 compounds, 0.38% hits;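 active means below 25% or above 175%, edge rows of some plates excepted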;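 further: Galphao activated by GDP with aluminum fluoride before binding; 100% = wells without compound and 0% = beads without RGS; some results beyond the cut were filed as inactive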
Target sequence (O15492 whole entry, looked up): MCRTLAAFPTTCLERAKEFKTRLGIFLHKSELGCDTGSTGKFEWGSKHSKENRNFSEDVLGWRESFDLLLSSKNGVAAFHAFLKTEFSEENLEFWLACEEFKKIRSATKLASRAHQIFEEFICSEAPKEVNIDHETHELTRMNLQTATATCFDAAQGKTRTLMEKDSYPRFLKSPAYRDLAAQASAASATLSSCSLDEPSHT
Target sequence (P09471 whole entry, looked up): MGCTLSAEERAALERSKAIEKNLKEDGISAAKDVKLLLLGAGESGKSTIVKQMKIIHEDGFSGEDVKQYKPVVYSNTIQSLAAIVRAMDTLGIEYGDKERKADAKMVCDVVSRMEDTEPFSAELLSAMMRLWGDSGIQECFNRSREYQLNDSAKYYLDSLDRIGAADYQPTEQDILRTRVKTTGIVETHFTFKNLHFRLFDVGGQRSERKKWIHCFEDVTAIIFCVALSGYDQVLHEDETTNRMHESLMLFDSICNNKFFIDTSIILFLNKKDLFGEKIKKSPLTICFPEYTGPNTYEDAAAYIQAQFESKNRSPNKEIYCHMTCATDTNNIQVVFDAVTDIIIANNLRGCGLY
HSV replic up – increases HSV replication in cells; 220,000 compounds, 0.005% hits; HSV replication augmentation in cells, fold increase; maximum fold increase;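 active means peak rise of 1.5-fold or more in the series; inconclusive means self-fluorescent or not available for retest; tested in PC3 cells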;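 further: first round at 10 µM; read as green reporter fluorescence; hits show the peak of a series up to 25 µM; 1 = signal of infected wells without compound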
INS promoter inh cell count – recorded beside INS promoter inh, whose call it bears; normalized cell count, %; measured here: cell count, toxicity; reference of the scale not given here;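 cells exposed to compound for 48 h; stained nuclei by imaging scaled within each plate; lower means fewer cells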
HSV replic up primary fold – also measured in HSV replic up; calls as there; fold increase; compound at 10 µM; measured here: primary screen fold increase 10 uM; tested in PC3 cells;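 GFP signal in the first replicate; 1 = infected wells without compound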
An asterisk follows results filed as active; i = inactive; ? = inconclusive; . = not tested or not shown.

The opening two records, to show the layout:
nr	canonical_smiles	GALR2 ag	PKD1 kinase inh	INS promoter inh	INS promoter inh cell count	RGS16-Gao	HSV replic up	HSV replic up primary fold
1	COC(=O)C1=C(C(=O)c2ccc(C)cc2)C(c2ccc(O)c(OC)c2)n2nnnc2N1 (stereo not drawn)	-0.8	-2	26	73	107	?	.
2	O=C(c1ccccn1)N1N=C2/C(=C/c3ccc(F)cc3)CCCC2C1c1ccc(F)cc1 (stereo not drawn)	0.6	4	.	.	102	i	1.1

All compounds of this part, previewed entries included:
nr	canonical_smiles	GALR2 ag	PKD1 kinase inh	INS promoter inh	INS promoter inh cell count	RGS16-Gao	HSV replic up	HSV replic up primary fold
1	COC(=O)C1=C(C(=O)c2ccc(C)cc2)C(c2ccc(O)c(OC)c2)n2nnnc2N1 (stereo not drawn)	-0.8	-2	26	73	107	?	.
2	O=C(c1ccccn1)N1N=C2/C(=C/c3ccc(F)cc3)CCCC2C1c1ccc(F)cc1 (stereo not drawn)	0.6	4	.	.	102	i	1.1
3	CC(C)=NNc1cc([N+](=O)[O-])cc2c1C(=O)N(C)S2=O (stereo not drawn)	.	2	.	.	85	i	0.86
4	COc1cc(NC(=O)c2cccc(C)c2)c(OC)cc1NC(=O)CN1CCCCC1	.	0	-67	135	104	i	0.89
5	COc1ccc(C2=NOC3(CC(=O)N(c4ccc(F)cc4)C3=O)C2)c(OC)c1 (stereo not drawn)	-0.8	5	16	72	103	i	1
6	CC(=O)Nc1sc2c(c1CN1CCN(c3ccccn3)CC1)CCCC2	-1.0	-8	24	62	112	i	0.75
7	CCN(C(=O)COC(=O)c1cccc(-n2cnnn2)c1)C1CCCCC1	.	-4	.	.	98	i	1
8	Cc1nn(Cc2ccc(C(=O)NC3CCCCC3)o2)c(C)c1Br	0.4	-5	-190	59	108	i	0.87
9	CN(c1ccccc1)S(=O)(=O)c1cc(C(=O)N2CCN(c3ccccn3)CC2)ccc1Cl	-0.6	1	-25	74	106	i	0.95
10	O=C(NNc1nc2ccccc2s1)Nc1ccccc1	3.4	7	4	75	103	i	1
11	O=c1nc(C(F)(F)F)nc2ccccn12	-1.6	5	46	135	104	i	1.1
12	CCOC(=O)Cc1ncccc1C(=O)Nc1ccc(OC)cc1	.	-8	0	161	95	.	.
13	C=CCn1c(C)cc(C(=O)CN2C(=O)NC3(CCCc4ccccc43)C2=O)c1C (stereo not drawn)	-0.4	-2	12	106	74	i	1
14	CCN(CC)S(=O)(=O)c1ccc(-n2c(=O)c(C(C)C)c(C)n2C)cc1	.	-7	.	.	104	i	0.98
15	CCOC(=O)C1CCCN(Cc2ccc3c(c2)OCO3)C1 (stereo not drawn)	-2.5	-3	30	131	107	i	0.94

4 entries from above in a different format:
6. CC(=O)Nc1sc2c(c1CN1CCN(c3ccccn3)CC1)CCCC2
  GALR2 ag = -1.0; PKD1 kinase inh = -8; INS promoter inh = 24; INS promoter inh cell count = 62; RGS16-Gao = 112; HSV replic up = i; HSV replic up primary fold = 0.75
7. CCN(C(=O)COC(=O)c1cccc(-n2cnnn2)c1)C1CCCCC1
  GALR2 ag = .; PKD1 kinase inh = -4; INS promoter inh = .; INS promoter inh cell count = .; RGS16-Gao = 98; HSV replic up = i; HSV replic up primary fold = 1
8. Cc1nn(Cc2ccc(C(=O)NC3CCCCC3)o2)c(C)c1Br
  GALR2 ag = 0.4; PKD1 kinase inh = -5; INS promoter inh = -190; INS promoter inh cell count = 59; RGS16-Gao = 108; HSV replic up = i; HSV replic up primary fold = 0.87
9. CN(c1ccccc1)S(=O)(=O)c1cc(C(=O)N2CCN(c3ccccn3)CC2)ccc1Cl
  GALR2 ag = -0.6; PKD1 kinase inh = 1; INS promoter inh = -25; INS promoter inh cell count = 74; RGS16-Gao = 106; HSV replic up = i; HSV replic up primary fold = 0.95

The listing continues:
nr	canonical_smiles	GALR2 ag	PKD1 kinase inh	INS promoter inh	INS promoter inh cell count	RGS16-Gao	HSV replic up	HSV replic up primary fold
16	CCSc1nnc(NC(=O)CSc2nnc(Cc3cccn3C)n2-c2ccc(C)cc2)s1	-1.2	-14	2	103	100	i	1
17	Cc1cccc2cc(CN(Cc3ccc(F)cc3)C(=O)N3CCOCC3)c3nnnn3c12	-2.3	-8	17	93	98	i	0.83
18	O=C(NCc1ccco1)c1ccc(Cn2c(=O)c3ccccc3n(Cc3cccc(F)c3)c2=O)cc1	-2.5	3	13	45	102	i	0.96
19	Cn1nc(C(F)(F)F)cc1C(=O)Nc1ccc(Cl)cc1	.	.	.	.	102	i	0.95
20	C=CCn1c(O)c(C(CC)=NCCN2CCOCC2)c(=O)[nH]c1=O	-0.9	10	.	.	112	i	0.82
21	COC(=O)C(C)n1cnc2c(nnn2-c2cccc(Cl)c2)c1=O (stereo not drawn)	-2.5	-8	.	.	107	i	0.79
22	CC(C)(CO)CNC(=O)CCc1nnc(CCCc2ccccc2)o1	.	-12	-78	32	103	i	0.98
23	Fc1ccc(NC(=S)N/N=C/c2cccc(Br)c2)c(F)c1	0.6	-2	29	124	96	i	0.91
24	CC(C)N(C(=O)Cn1c(SCC(=O)Nc2nccs2)nc2ccccc21)C(C)C	-3.7	-5	27	88	96	i	0.85
25	Cc1ccc(CC2S/C(=N/N=C/c3ccco3)NC2=O)cc1 (stereo not drawn)	.	-5	.	.	101	i	1.1
26	Cc1cc(Br)c(NC(=O)COC(=O)C2CC2C)c(Br)c1 (stereo not drawn)	-2.3	-17	7	97	97	i	0.96
27	CCCCn1nc2cc(C(=O)NCC34CC5CC(CC(C5)C3)C4)ccc2c1OC	-3.0	-5	.	.	100	i	0.79
28	CCC(=O)c1c[nH]c(C(=O)NCc2cccnc2)c1	.	-2	-60	150	94	i	0.94
29	O=C(O)CC1Sc2ccccc2NC1=O (stereo not drawn)	-1.4	-10	30	113	99	i	0.82
30	CC(=O)Nc1ccc(S(=O)(=O)NC(CC(=O)O)c2ccc(C)cc2)cc1 (stereo not drawn)	.	.	.	.	98	i	1.1
31	CCOC(=O)Cc1csc(NC(=O)c2cc3ccccc3o2)n1	.	-1	.	.	103	i	0.99
32	Cc1cc(N/N=C/c2ccncc2)nc2ccccc12	.	-2	-37	102	103	i	0.99
33	C=CCn1c(C)cc(C(=O)COc2ccc(C)nc2[N+](=O)[O-])c1C	-1.3	-5	50	123	99	i	0.96
34	Cc1ccc(S(=O)(=O)/N=C2/NC(=O)/C(=C/c3ccc(Br)o3)S2)cc1	-0.7	-9	19	103	101	i	1.2
35	Cc1ccc(C(=O)Nc2c(C#N)c(C)c(C)n2Cc2ccccc2)cc1	-1.1	5	-7	99	98	i	0.87
36	CCOC(=O)c1c(NC(=S)Nc2ccc(OCC)cc2)sc2c1CCN(C)C2	.	.	.	.	105	i	1.1
37	COC(=O)c1cc(S(=O)(=O)Nc2cc(S(=O)(=O)N(C)C)ccc2C)oc1C	.	.	.	.	95	i	1
38	CC1(C)Cc2c(sc3ncnc(NNC(=S)NCc4ccccc4)c23)CO1	-0.3	-4	-207	55	89	i	0.62
39	O=C(NC1CCCCC1)N1CCC(c2nc3ccccc3[nH]2)CC1	-1.8	3	6	53	109	i	1.1
40	COc1cc(CCC(=O)OCC(=O)Nc2ccccc2C#N)cc(OC)c1OC	.	-4	-25	87	111	i	1
41	O=C(O)CCCC(=O)NNc1ncnc2ccccc12	-0.9	-10	.	.	105	i	0.96
42	C=CCNC(=S)NNC(=O)c1cccc2ccccc12	-0.5	4	25	81	78	i	1
43	Cc1nc(SCc2cccc(C(=O)O)c2)nc2c1CCCC2	.	-2	.	.	103	i	1.1
44	CC(C)[C@H](NC(=O)NCc1ccco1)C(=O)O	-0.2	8	.	.	111	i	0.99
45	Cc1ccc(C(=O)Cn2nc(C(=O)O)c3ccccc3c2=O)cc1C	.	.	.	.	93	i	1.1
46	O=C(NN(C(=O)c1ccccc1)c1ccccc1)c1ccccc1	.	.	.	.	97	i	1
47	C#CCOCCOCCOCCNc1nc(N2CCOCC2)nc(N2CCN(C(=O)[C@H](CCCCN)n3cc([C@@H](N)CO)nn3)CC2)n1	.	-1	.	.	106	i	1
48	Cc1ccccc1-c1nnc(SCC(=O)N(CC(C)C)c2c(N)n(CC(C)C)c(=O)[nH]c2=O)n1C	.	.	.	.	98	i	1.2
49	CC(=O)Nc1ccc(-c2ccc3nnc(C)n3n2)cc1	.	1	8	90	107	i	0.95
50	O=C1C2C3C=CC(C3)C2C(=O)N1c1ccc(-c2nc3ccccc3c(=O)o2)cc1 (stereo not drawn)	.	-4	.	.	113	i	1.1
51	O=C(CN1CCOCC1)Nc1ccc(S(=O)(=O)N2CCCCCC2)cc1	-0.3	7	18	72	104	i	1.1
52	COc1ccc2c(c1)SCC(=O)N2C	-0.7	-13	-39	104	107	i	0.99
53	CC1CCCCC1NC(=O)c1ccc(CNc2c(N3CCCC3)c(=O)c2=O)cc1 (stereo not drawn)	-1.5	0	.	.	94	i	1.1
54	CC(=O)Nc1cccc(OCc2c(F)cccc2Cl)c1	.	7	.	.	100	i	1
55	O=C(CSc1nc2cc(Cl)ccc2s1)NC(=O)NCc1ccco1	-1.9	-7	-195	42	97	i	0.9
56	CN(C)c1ccc(/C=N/NC(=O)C2CC2c2ccccc2)cc1 (stereo not drawn)	.	-2	.	.	107	i	0.93
57	CC1CCCC(CC(=O)O)(CC(=O)O)C1 (stereo not drawn)	.	.	.	.	98	i	1.2
58	Cc1cccc(C)c1N1C(=O)c2ccccc2C1=O	-3.8	-3	.	.	101	i	0.92
59	Cc1ccc(S(=O)(=O)N(CC(=O)N2CCC(C)CC2)c2ccccc2)cc1	.	-8	-8	95	102	i	1
60	Nc1nc(NCc2ccco2)nc(N2CCN(Cc3ccccc3)CC2)c1[N+](=O)[O-]	.	.	.	.	91	i	0.79

Some of the entries so far, with values under each structure:
Results follow in this order: GALR2 ag, PKD1 kinase inh, INS promoter inh, INS promoter inh cell count, RGS16-Gao, HSV replic up, HSV replic up primary fold
2. O=C(c1ccccn1)N1N=C2/C(=C/c3ccc(F)cc3)CCCC2C1c1ccc(F)cc1 (stereo not drawn)
→ 0.6, 4, ., ., 102, i, 1.1
3. CC(C)=NNc1cc([N+](=O)[O-])cc2c1C(=O)N(C)S2=O (stereo not drawn)
→ ., 2, ., ., 85, i, 0.86
4. COc1cc(NC(=O)c2cccc(C)c2)c(OC)cc1NC(=O)CN1CCCCC1
→ ., 0, -67, 135, 104, i, 0.89
5. COc1ccc(C2=NOC3(CC(=O)N(c4ccc(F)cc4)C3=O)C2)c(OC)c1 (stereo not drawn)
→ -0.8, 5, 16, 72, 103, i, 1

(next part)
nr	canonical_smiles	GALR2 ag	PKD1 kinase inh	INS promoter inh	INS promoter inh cell count	RGS16-Gao	HSV replic up	HSV replic up primary fold
61	CCn1c(SCC(=O)Nc2cccc(NC(=O)c3cccs3)c2)nnc1-c1ccncc1	-1.8	-1	0	118	106	i	0.93
62	CCCCNC(=O)c1c[nH]c2ccc(S(=O)(=O)N3CCOCC3)cc2c1=O	.	4	.	.	97	i	0.96
63	O=C(Nc1nc2c(Cl)ccc(Cl)c2s1)c1ccco1	-0.8	-11	.	.	103	i	0.73
64	CC1CCN(C2=NC(=O)/C(=C/c3cn[nH]c3-c3ccccc3)S2)CC1	-1.0	0	-30	105	102	i	0.74
65	CCOCCOc1cccc(C(=O)NC(c2ccccc2)C(C)C)c1 (stereo not drawn)	.	7	-53	79	105	i	0.95
66	CC1CCCCC1NC(=O)COC(=O)C12CC3CC(CC(Cl)(C3)C1)C2 (stereo not drawn)	.	-12	-122	89	101	i	0.91
67	CCC(Sc1ncccc1C(=O)OC(C)C)C(=O)NCc1ccco1 (stereo not drawn)	-0.1	-8	-63	105	49	i	1.1
68	C=CCNC(=O)CC(=O)N/N=C/c1cccs1	.	-3	.	.	94	i	0.82
69	C=CCN(CC(=O)NCc1ccc(F)cc1)C(=O)c1csnn1	-2.5	-1	43	113	112	i	0.92
70	O=C(NC(=S)N1CCN(C/C=C/c2ccccc2)CC1)c1ccco1	.	-4	43	127	104	i	1
71	O=C1CCC(=O)N1c1ccc(NCc2ccccc2Cl)c([N+](=O)[O-])c1	-1.9	-3	-16	75	112	i	1
72	O=C(c1ccco1)N1CCN(C2CCCC2)CC1	-1.0	-16	.	.	101	.	.
73	Cc1ccc(-c2nc(N)sc2CC(=O)OCC(=O)NC2CCCC(C)C2C)cc1 (stereo not drawn)	-0.3	-13	.	.	97	i	1.5
